Source: PubChem
PV pol inh: poliovirus RNA polymerase inhibition; poliovirus polymerase elongation, fluorescence polarization; active compounds read low; 150,000 compounds, 0.66% hits; % elongation, % (compound at 16.7 µg/mL); in the data active means % elongation below about 90%; further: some results filed as inactive read as strong as hits
Target sequence (P03300 1749-2209 limits assumed): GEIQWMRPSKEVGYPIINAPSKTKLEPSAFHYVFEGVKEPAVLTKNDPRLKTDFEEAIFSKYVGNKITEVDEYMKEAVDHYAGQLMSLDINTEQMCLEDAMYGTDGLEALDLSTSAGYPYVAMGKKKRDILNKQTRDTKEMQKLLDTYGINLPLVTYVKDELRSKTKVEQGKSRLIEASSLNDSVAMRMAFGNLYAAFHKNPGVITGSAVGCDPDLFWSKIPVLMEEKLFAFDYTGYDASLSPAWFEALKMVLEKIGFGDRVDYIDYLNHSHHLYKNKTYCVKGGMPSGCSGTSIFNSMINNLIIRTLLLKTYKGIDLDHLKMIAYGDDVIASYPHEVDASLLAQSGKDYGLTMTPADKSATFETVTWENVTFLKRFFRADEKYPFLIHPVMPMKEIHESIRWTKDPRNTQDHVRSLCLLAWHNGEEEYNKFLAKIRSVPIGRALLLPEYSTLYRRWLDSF
PV pol inh intensity: further read-out of PV pol inh, marked with its call; % elongation; measured here: total intensity read-out; formula for this scale not given here;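 total fluorescence in place of polarization; lower means less elongation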
Numbers without * were called inactive.

| smiles | PV pol inh | PV pol inh intensity |
| --- | --- | --- |
| CCc1ccc(NC(=O)CN2C(=O)C3(SCC(=O)N3c3ccc(F)c(F)c3)c3ccccc32)cc1 (stereo unspecified) | 104 | 96 |
| CCN(C(=O)Cn1c(=O)n(Cc2ccc3c(c2)OCO3)c(=O)c2ccc(C(=O)NC3CCCCC3)cc21)c1cccc(C)c1 | 107 | 111 |
| Cc1noc(/C=C/c2ccccc2F)c1S(=O)(=O)N1CCC(C(=O)NCc2ccco2)CC1 | 102 | 97 |
| COc1cccc(C(=O)Nc2cccc(-c3cn4c(C)csc4n3)c2)c1OC | 105 | 101 |
| COc1ccc2c(CNCc3ccco3)c(C(=O)O)n(Cc3ccc(F)cc3Cl)c2c1 | 109 | 108 |
| Cc1ccc(Cl)cc1NC(=O)CCCN1C(=O)CCn2nc(-c3cn(C)c4ccccc34)cc21 | 108 | 102 |
| CC1=C(C(=O)Nc2ccccc2)C(c2cccc(O)c2)n2nc(-c3ccccc3Cl)nc2N1 (stereo unspecified) | 103 | 108 |
| CC(C)NC(=O)c1ccc(Cn2c(=O)c3cccn3c3cccnc32)cc1 | 107 | 109 |
| Cc1cccc(-c2nc3scc(CCNS(=O)(=O)c4ccc5c(c4)OCCO5)n3n2)c1 | 111 | 108 |
| CC(C)c1ccc(N2C(=O)CSC23C(=O)N(C)c2ccccc23)cc1 (stereo unspecified) | 103 | 105 |
| Cc1cccc(C(=O)NCC(=O)OCc2cc(=O)n3nc(CC(C)C)sc3n2)c1 | 111 | 107 |
| CC(C)CCNC(=O)c1ccc(Cn2c(SCC(=O)NC(C)C)nc3ccccc3c2=O)cc1 | 109 | 97 |
| COc1ccc(OC)c(CNC(=O)c2nn(C)c3c2CS(=O)(=O)c2ccccc2-3)c1 | 109 | 111 |
| Cc1cc2nc3c(=O)n(C)c(=O)n(C)c3nc2cc1N=CN(C)C | 82 | 151 |
| Cc1cc2c(cc1C)NC(CC(=O)Nc1cccc(C)c1C)C(=O)N2 (stereo unspecified) | 106 | 111 |
| CNC(=O)Cn1c(=O)c2cccn2c2ccc(F)cc21 | 104 | 112 |
| CCOc1ccccc1CN1CCc2nc(Nc3ccc4c(c3)OCCO4)ncc2C1 | 91 | 98 |
| CN(Cc1ccccc1)C(=O)c1ccc(CSc2nc3cccnc3n2Cc2ccccc2)cc1 | 114 | 105 |
| CCCN(CCC)CCCNC(=O)C1CCN(S(=O)(=O)c2cccc3nsnc23)CC1 | 105 | 108 |
| COc1cccc2sc(N(Cc3cccnc3)C(=O)c3ccc4c(c3)OCCO4)nc12 | 107 | 108 |
| COC(=O)c1cc2oc(C)cc2n1Cc1ccc(Br)cc1F | 104 | 106 |
| Cc1ccc(CNC(=O)CCCn2nc(C)c3c(C)n(-c4ccccc4)nc3c2=O)cc1 | 123 | 114 |
| Cc1cc2[nH]c(=O)c(=O)[nH]c2cc1S(=O)(=O)Nc1cccc(C(F)(F)F)c1 | 103 | 106 |
| CN1CCN(CCNC(=O)c2cnn(-c3ccc(Cl)cc3)c2C2CCN(C(=O)OC(C)(C)C)CC2)CC1 | 110 | 112 |
| COc1ccccc1-c1nnc(SCC(=O)Nc2ccccc2F)o1 | 102 | 106 |
| O=c1cc2nc(-c3ccccc3)nc(SCc3cccc(Br)c3)n2[nH]1 | 102 | 108 |
| COc1cc(C(=O)NCCCc2nc3ccccc3n2CC(C)C)cc(OC)c1OC | 106 | 107 |
| Cc1ccc(C)c(Cn2c3ccccc3c3cnn(CC(=O)NC(C)c4ccccc4)c(=O)c32)c1 (stereo unspecified) | 104 | 104 |
| Cc1c(C(=O)Nc2ccc(F)c(Cl)c2)oc2ccc(S(=O)(=O)N(C)C3CCCCC3)cc12 | 115 | 113 |
| Cc1ccc(Cl)cc1N1CCN(C(=O)CN2C(=O)COc3ccc(S(=O)(=O)N4CCCCCC4)cc32)CC1 | 107 | 106 |
| COc1ccc(NC(=O)Cn2c(=O)nc(-c3ccccc3)c3ccccc32)cc1OC | 105 | 108 |
| Cc1ccc(NC(=O)/C(C#N)=C\c2ccc(Cl)cc2Cl)cc1C | 104 | 105 |
| COc1cc(OC)c(NC(=O)COc2ccccc2-c2nnc(-c3ccccc3)o2)cc1Cl | 106 | 111 |
| CCOCCCNC(=O)c1ccc(-c2nc(CS(=O)(=O)c3ccccc3)c(C)o2)cc1 | 104 | 105 |
| Cc1cc(C)c(OCC(=O)N(Cc2cccc(F)c2)Cc2ccco2)c(C)c1 | 109 | 108 |
| CCOc1ccc(NC(=O)Nc2cccc(C)n2)cc1 | 108 | 108 |
| O=S(=O)(c1ccccc1)c1nc(-c2ccc(F)cc2)oc1N1CCOCC1 | 105 | 109 |
| COc1ccc2cc3cc(C(=O)N4CCN(c5ccccc5F)CC4)oc3nc2c1 | 106 | 108 |
| O=C(CSC1=Nc2ccccc2C2=NC(CCC(=O)NC3CCCCC3)C(=O)N12)Nc1cccc(C(F)(F)F)c1 (stereo unspecified) | 115 | 117 |
| COc1cccc(CNC(=O)C(=O)NCC(c2cccs2)S(=O)(=O)c2cccs2)c1 (stereo unspecified) | 109 | 114 |
| Cc1cc(C)cc(NC(=O)C2CCN(c3nnc(-n4c(C)ccc4C)s3)CC2)c1 | 109 | 111 |
| CN(C)CCN(Cc1ccccc1)S(=O)(=O)c1ccc(-c2cc(C(F)(F)F)on2)s1 | 104 | 107 |
| Cc1ccc(Nc2c(-c3cccs3)nc3nc(C)cc(C)n23)cc1 | 109 | 108 |
| Cc1ccc(NC(=O)CCS(=O)(=O)c2cc3c4c(c2)CCN4C(=O)CC3)c(C)c1 | 108 | 109 |
| COc1cccc(NC(=O)CSC2=Nc3ccccc3C3=NC(CC(=O)NCc4cccs4)C(=O)N23)c1 (stereo unspecified) | 108 | 106 |
| COc1cccc2c1Oc1ncccc1N(c1ccc(C(=O)NCc3cccc(C)c3)s1)C2 | 106 | 111 |
| Cn1cc(C(=O)NCCc2ccc(Cl)cc2)c(=O)c2cc(S(=O)(=O)N3CCOCC3)ccc21 | 105 | 103 |
| CCOc1ccc(NC(=O)c2oc3ccccc3c2NC(=O)c2ccc(OC)cc2OC)cc1 | 108 | 110 |
| O=C(CCC(=O)OCC(=O)c1ccc(Cl)cc1)Nc1ccc(Oc2ccccc2)cc1 | 107 | 108 |
| COc1ccc(-n2c(/C=C/c3cc(OC)c(OC)cc3OC)nc3cc4ccccc4cc3c2=O)cc1Cl | 105 | 99 |

Record cards, from the list above. Order of screens: PV pol inh, PV pol inh intensity
Shown for COc1cccc2c1Oc1ncccc1N(c1ccc(C(=O)NCc3cccc(C)c3)s1)C2 : 106, 111
Shown for COc1ccc2cc3cc(C(=O)N4CCN(c5ccccc5F)CC4)oc3nc2c1 : 106, 108
Shown for O=c1cc2nc(-c3ccccc3)nc(SCc3cccc(Br)c3)n2[nH]1 : 102, 108
Shown for COc1ccc(-n2c(/C=C/c3cc(OC)c(OC)cc3OC)nc3cc4ccccc4cc3c2=O)cc1Cl : 105, 99
Shown for COc1cccc(NC(=O)CSC2=Nc3ccccc3C3=NC(CC(=O)NCc4cccs4)C(=O)N23)c1 (stereo unspecified) : 108, 106

(next part)
| smiles | PV pol inh | PV pol inh intensity |
| --- | --- | --- |
| CC(C)CCNC(=O)Nc1cc(C(=O)NCc2cccc(F)c2)ccc1N1CCCC1 | 106 | 107 |
| CC1=C(c2ccc(C)cc2)S(=O)(=O)NC1=NCCCN1CCN(c2ccc(F)cc2)CC1 | 112 | 111 |
| O=C(CCn1c(=O)c2sccc2n(CC(=O)Nc2ccccc2)c1=O)NCc1ccccc1Cl | 107 | 112 |
| O=C(COc1ccc([N+](=O)[O-])cc1)NCC1(N2CCOCC2)CCCCC1 | 111 | 113 |
| Cc1ccccc1C(=O)Nc1cccc(OCc2cc(=O)n3c(C)csc3n2)c1 | 110 | 110 |
| CCSc1ccc(C(=O)Nc2ccc(-c3nc4ccc(C)cc4s3)cc2)cc1 | 108 | 93 |
| COc1ccc(CNS(=O)(=O)c2cc(C(=O)Nc3cc(Cl)cc(Cl)c3)ccc2F)cc1 | 110 | 109 |
| COc1ccc(-c2cn3c(n2)sc2cc(C(=O)Nc4ccccc4F)ccc23)cc1 | 109 | 112 |
| CC(=O)c1ccc(NC(=O)c2ccc3c(c2)N(Cc2cccc(Cl)c2)C(=O)c2ccccc2S3=O)cc1 (stereo unspecified) | 106 | 109 |
| COc1ccc2oc(=O)c(C(=O)NCCc3c(C)[nH]c4ccc(Br)cc34)cc2c1 | 101 | 107 |
| COc1ccc(Cl)cc1NC(=O)C(C)n1nnc2sc3c(c2c1=O)CCCC3 (stereo unspecified) | 109 | 108 |
| O=C1c2oc3ccccc3c(=O)c2C(c2cccc(Br)c2)N1c1ccccn1 (stereo unspecified) | 101 | 101 |
| CCOc1ccc(NC(=O)c2noc3c2CSc2ccccc2-3)cc1 | 110 | 115 |
| COc1ccccc1CNC(=O)c1ccc(-c2nc(CN3CCc4ccccc43)c(C)o2)cc1 | 112 | 114 |
| COc1ccc(CCN2C(=O)NC(NS(=O)(=O)c3ccc(NC(C)=O)cc3)(C(F)(F)F)C2=O)cc1OC (stereo unspecified) | 105 | 106 |
| Cc1ccc(OCCSc2nc(-c3ccccc3C)nc3cc(=O)[nH]n23)cc1Cl | 105 | 95 |
| O=C(c1ccccc1Cl)N1CCCC(c2nc3c(nnn3Cc3ccc(F)cc3F)c(=O)[nH]2)C1 (stereo unspecified) | 102 | 107 |
| CCC1CN(C(=O)N2CCC(C(=O)NCc3cccc(OC)c3OC)CC2)c2cc(C)ccc2O1 (stereo unspecified) | 111 | 108 |
| Cc1cc(Br)cc2c1N(Cc1ccccc1OC(C)C)C(=O)C2=O | 107 | 113 |
| O=C(c1cccc(Cl)c1)N(Cc1ccco1)Cc1ccccc1Cl | 107 | 108 |
| COc1ccccc1C(=O)Nc1ccc(-c2nc3cc(C)cc(C)c3o2)cc1 | 106 | 97 |
| CCCC(=O)C1=C(c2cccc(OC)c2)N(C(=O)CCC)n2c(C)nnc2S1 | 103 | 105 |
| Cc1cccc(-n2c3nc(=O)[nH]c(=O)c-3cc3ccc(Cl)cc32)c1C | 102 | 108 |
| Cc1ccccc1NC(=O)C1CCN(S(=O)(=O)c2cccc3nonc23)CC1 | 104 | 108 |
| Cc1oc2cc3oc(=O)c(CC(=O)N4CCCCC4)c(C)c3cc2c1C | 109 | 114 |

An excerpt of these results, as labelled records.
Cc1cc(C)cc(NC(=O)C2CCN(c3nnc(-n4c(C)ccc4C)s3)CC2)c1
  PV pol inh: 109
  PV pol inh intensity: 111

CN(C)CCN(Cc1ccccc1)S(=O)(=O)c1ccc(-c2cc(C(F)(F)F)on2)s1
  PV pol inh: 104
  PV pol inh intensity: 107

Cc1ccc(Nc2c(-c3cccs3)nc3nc(C)cc(C)n23)cc1
  PV pol inh: 109
  PV pol inh intensity: 108

Cc1ccc(NC(=O)CCS(=O)(=O)c2cc3c4c(c2)CCN4C(=O)CC3)c(C)c1
  PV pol inh: 108
  PV pol inh intensity: 109

(listing goes on)
| smiles | PV pol inh | PV pol inh intensity |
| --- | --- | --- |
| Cc1ccccc1CS(=O)(=O)Cc1ccc(C(=O)NCc2ccc(F)cc2)o1 | 116 | 116 |
| COc1cccc(CNC(=O)CCn2ccc3cc(S(=O)(=O)N4CCCC4)ccc32)c1 | 110 | 108 |
| CCN(CC)C(=O)C1CCN(C(=O)c2cnn(-c3ccccc3)c2-n2cccc2)CC1 | 107 | 107 |
| CCOc1cccc(C(=O)N(Cc2ccc(CC)cc2)C2CCS(=O)(=O)C2)c1 (stereo unspecified) | 99 | 95 |
| CC(=O)N1c2ccc(S(=O)(=O)NCC3CCC(C(=O)Nc4ccccc4C)CC3)cc2CC1C (stereo unspecified) | 115 | 109 |
| CCc1nnc2c3ccccc3nc(Nc3cc(C)cc(C)c3)n12 | 104 | 105 |
| O=C(NCCc1ccc(F)cc1)C(=O)NCC(c1cccs1)S(=O)(=O)c1ccccc1 (stereo unspecified) | 102 | 101 |
| CC(=O)Nc1cc(C(=O)NCc2ccccc2Cl)ccc1Sc1ccc(F)cc1 | 110 | 98 |
| CC1CN(C(=O)Nc2ccc(C(=O)NCCc3ccc(Cl)cc3)cc2)c2ccccc2S1 (stereo unspecified) | 104 | 105 |
| O=C(Nc1sc2c(c1C(=O)NCc1ccco1)CCCC2)c1cc(=O)c2ccccc2o1 | 102 | 108 |
| COc1ccc(NC(=O)CC2C(=O)N(c3cccc(OC)c3)C(=O)N2CCc2cccs2)cc1 (stereo unspecified) | 106 | 109 |
| Cc1ccc(NC(=O)c2ccc(=O)n(Cc3ccccc3C)c2)c(C)c1 | 105 | 107 |
| CCc1ccc(NC(=O)CC(NCc2cccnc2)C(=O)O)cc1 (stereo unspecified) | 101 | 104 |
| CCc1ccc(S(=O)(=O)c2nnn(-c3cccc(C)c3)c2N)cc1 | 108 | 113 |
| Cc1ccc(S(=O)(=O)NCCc2cn3ccsc3n2)cc1 | 102 | 108 |
| CC1=C(C(=O)Nc2ccc(C)cc2)C(c2ccc(Cl)cc2)n2nnnc2N1 (stereo unspecified) | 104 | 108 |
| Cc1ccc(-c2nc(CCNC(=O)C(=O)Nc3ccc(F)cc3F)cs2)cc1 | 112 | 115 |
| CCN(CC)c1ccc(C2C(C(N)=O)=C(C)Nc3ncnn32)cc1 (stereo unspecified) | 102 | 105 |
| Cc1ccccc1CNc1nc(N(C)C)nc2c1cnn2C | 105 | 112 |
| COc1ccc(CCNC(=O)c2nnc(Cc3ccc(Cl)cc3)o2)cc1OC | 107 | 110 |
| Cc1ccc(OCC(=O)Nc2nnc(S(=O)(=O)N3CCCCCC3)s2)cc1 | 106 | 111 |

Some of the compounds tested; the hit share may differ from the screen's.
